Bioassay records (PubChem BioAssay)
Beta cell apopt: blocks beta cell apoptosis; INS-1E cytokine-induced death, ATP luminescence, 48 h; percent of positive-control rescue, neutral wells zero; protection from apoptosis, % (test concentration not listed); AID 435005; 0.8% of 300,000 active;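 active = all replicates at 75% or more, or half of them and the mean; inconclusive = half reach 75% but not the mean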;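 note: 0% = cytokine-treated negative control wells and 100% = positive control rescue; higher means more ATP so stronger rescue from cytokine killing; wells of about 40 µL received 100 nL stock; the first replicate is given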
rRNA inh HTS: inhibits bacterial ribosomal RNA function over humanized ribosomes; E. coli WT GFP vs humanized-ribosome RFP mutants, fluorescence, 24 h; stronger effect = lower value; DMSO median 0, no signal -100; GFP signal change (wild-type ribosome), % (concentration not given with the values); 1.6% of 350,000 active;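 active = significant combined selectivity score with lowered wild-type GFP, culture density cut under 30%, mutant RFP and density less affected; inactive = any of these conditions unmet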; note: one replicate is shown; some compounds called inactive have numbers as strong as hits
LANA-H2A inh: blocks KSHV LANA binding to histone H2A/H2B; Q9QR71; AID 2629; 0.6% of 320,000 active; cell-free LANA-H2A/H2B peptide, fluorescence polarization; inhibition, % (no concentration beside the values); in the data active = inhibition mostly above about 10%, no sharp cut-off; inactive = mostly below about 6.7%;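 note: stock transfer was 7.5 nL into about 10 µL; 0% = median of vehicle wells and 100% = median of positive control wells; one replicate is shown; the record names a cut of 25% in any replicate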
ALR H2O2 inh: inhibitors of human sulfhydryl oxidase ALR; inhibition, % (concentration not given with the values); 3.8% of 290,000 active; P55789; AID 485317; purified ALR, DTT oxidation, H2O2 HRP-luminol luminescence;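 active = mean and each replicate at 75% or more; inconclusive = only one of the two met; inactive = neither met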;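 note: stock transfer was 7.5 nL into about 7.5 µL; 0% = neutral wells and 100% = wells with inactivated enzyme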
Target sequence (P55789 whole entry, looked up): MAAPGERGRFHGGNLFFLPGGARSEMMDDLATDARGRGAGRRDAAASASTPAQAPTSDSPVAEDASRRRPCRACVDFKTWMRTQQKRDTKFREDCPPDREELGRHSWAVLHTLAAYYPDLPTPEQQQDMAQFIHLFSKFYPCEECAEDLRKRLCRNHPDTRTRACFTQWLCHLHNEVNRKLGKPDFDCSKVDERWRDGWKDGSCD
B2AR ag: human beta-2 adrenergic receptor agonism by FAP | 0.43% of 340,000 active | AID 504454 | Am2.2-beta2AR cells, FAP receptor internalization, flow cytometry; reference of the scale not given here | response, % (test concentration not listed);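 active = response above a set limit, near 3 SD of response in nonfluorescent compounds, cut at about 42% in these data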;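 note: stock transfer was 100 nL into about 11 µL; a reference agonist was the positive control; negative values mostly stem from fluorescent compounds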
Target sequence (P07550 whole entry, looked up): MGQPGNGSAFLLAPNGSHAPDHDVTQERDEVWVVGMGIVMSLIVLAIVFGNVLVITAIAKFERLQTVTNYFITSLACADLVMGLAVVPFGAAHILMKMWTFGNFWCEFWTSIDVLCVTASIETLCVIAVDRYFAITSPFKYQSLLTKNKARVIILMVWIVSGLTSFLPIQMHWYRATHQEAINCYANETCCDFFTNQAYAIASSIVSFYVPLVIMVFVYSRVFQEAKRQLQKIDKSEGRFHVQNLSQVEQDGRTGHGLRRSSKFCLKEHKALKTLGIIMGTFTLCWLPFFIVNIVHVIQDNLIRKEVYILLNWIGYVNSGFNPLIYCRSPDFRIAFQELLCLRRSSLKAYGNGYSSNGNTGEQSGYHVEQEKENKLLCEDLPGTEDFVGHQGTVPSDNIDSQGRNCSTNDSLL
T cruzi inh: blocks replication of Trypanosoma cruzi; T. cruzi beta-gal in NIH3T3, luminescence, 90 h; inhibition, % (no concentration beside the values); 1.4% of 300,000 active;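 active = mean inhibition across valid replicates above about 55%, limit read from the data; inconclusive = mean below that limit but half or more replicates reach it; inactive = mean below it, under half of replicates reach it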;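 note: signal also drops with host cell toxicity which is not excluded here; 0% = plate median of DMSO wells and 100% = zero luminescence signal; higher percent means less beta-gal luminescence so fewer parasites; stock transfer was 50 nL into about 50 µL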
Bfl-1 A1 inh: inhibitors of the anti-apoptotic protein A1, read as caspase activation | MEF A1-2A-BIM cells, Caspase-Glo 3/7 luminescence, 3 h; percent of clofoctol response, vehicle zero | caspase activation, % (concentration not given with the values) | 0.066% of 330,000 active;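 active = over half of replicate activation scores above 10%, or exactly half above 10 with the replicate mean above 10; inconclusive = replicate mean below 10 yet half the replicates above 10; inactive = over half of replicates below 10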;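 note: wells of about 30 µL received 50 nL stock; many hits fall short of the cut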
Calb FLC: affects C. albicans growth with fluconazole | C. albicans CaCi-2 (fluconazole-resistant clinical isolate) + fluconazole, Alamar Blue growth, 48 h | growth inhibition, % (concentration not given with the values) | 0.57% of 300,000 active;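 active = most replicates above 75%; inconclusive = exactly half above 75%; inactive = most below 75%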;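 note: all wells also contain fluconazole at 8 µg/ml as a sub-toxic cotreatment; 0% = median of DMSO wells and 100% = median of geldanamycin control wells; wells of about 8 µL received 7.5 nL stock; the first replicate is given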
rRNA inh HTS OD600: further read-out of rRNA inh HTS, marked with its call; OD600 change, %; measured here: OD600 growth;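 optical density of the mix in the first replicate; 0 = DMSO median and -100 = no signal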
rRNA inh HTS RFP: second read-out of rRNA inh HTS, no call of its own (marks repeat the call); RFP signal change, %; measured here: RFP humanized mutant strains;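 first replicate; 0 = DMSO median and -100 = no signal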
* hit, by the source's call; u = inconclusive; x = no result given. A portion of the library; count on the stated rates, not on these rows.

SMILES	Beta cell apopt	rRNA inh HTS	rRNA inh HTS OD600	rRNA inh HTS RFP	LANA-H2A inh	ALR H2O2 inh	B2AR ag	T cruzi inh	Bfl-1 A1 inh	Calb FLC
C/C=C(/C)C(=O)O[C@@H]1[C@H](OC(C)=O)c2c(ccc3ccc(=O)oc23)OC1(C)C	3	-6	-3	-0.5	1.5	-5	-5	4	-1.4	-2
CN(C)C1=NCCN1CC1CCCCCC1	-8	13	8	-0.6	-5.0	x	1	x	-0.7	x
Cc1cc(C)c(OCC(=O)Nc2ccccc2N2CCOCC2)c(C)c1	1	x	x	x	-0.4	-6	37	-5	0.9	2
O=C(CSc1nnc(CNc2ccc(Cl)cc2)o1)Nc1nc2c(s1)CCCC2	x	x	x	x	0.3	26	-13	-18	-0.5	2
CCOC(=O)c1csc(NNC=O)n1	-1	x	x	x	4.2	x	-7	-21	-0.2	-18
COc1ccc(/C=C/C(=O)NC(=S)NNC(=O)c2cc(OC)c(OC)c(OC)c2)cc1	22	-11	-3	-0.1	2.4	-1	14	-15	0.3	4
CCc1noc(C)c1C(=O)OCC(=O)Nc1cccc(C)c1	-1	2	-8	-0.8	-4.6	-3	-1	x	0.9	x
Cc1ccc(C)c(NC(CC(=O)c2ccccc2)C(=O)OCC(=O)c2cccs2)c1 (centres undefined)	-5	14	3	-1.3	-5.8	3	6	4	-0.3	-2
CN(CCNC(=O)CN1C(=O)CSc2ccc(S(=O)(=O)N3CCCC3)cc21)Cc1ccccc1	-3	4	-2	-9.2	0.5	-1	-1	38	1.5	-21
O=C(OCc1cc2ccccc2[nH]c1=O)c1ccccc1	-6	x	x	x	-7.0	-7	-15	-20	1.0	10
O=c1[nH]c(SCCN2CCOCC2)nc(O)c1-c1ccccc1	1	8	11	-0.5	-40	-4	-5	-1	0.0	-4
Cc1ccc(NNS(=O)(=O)c2ccc(C)cc2)cc1	x	x	x	x	5.5	98*	8	-7	0.4	-68
O=C(CCCCCN1C(=O)CCC1=O)Nc1ccc2c(c1)OCO2	x	x	x	x	3.3	-17	2	-3	0.5	-4
CCc1sc(C(=O)N2CCN(c3ccc(F)cc3)CC2)cc1C	-2	-14	-41	-2.7	0.3	73	1	-2	-0.8	5
O=C(O)c1cc(Br)ccc1NN=C1CCCCC1	-9	-21	-16	-6.4	x	x	-9	-4	-0.8	-3
CC(=O)C1=C(O)C(=O)N(Cc2ccccc2)C1c1ccc(F)cc1 (centres undefined)	-1	4	3	-0.3	5.3	-4	-3	-11	-0.1	-4
Cc1cc(C)c(C#N)c(OCC(=O)Nc2ccccc2)n1	-7	x	x	x	-0.3	-5	4	-12	0.4	-4
CN(C)CCn1c2ccccc2c2nc3ccc([N+](=O)[O-])cc3cc21	59	-32*	-19*	-4.0*	0.3	-7	0	34	-1.2	3
Cc1sc2ncnc(NC3CCN(Cc4ccccc4)CC3)c2c1C	77*	-10	-13	1.5	0.5	-21	8	58*	-0.5	34
COc1ccc(/C=C/C(=O)Nc2ccc(OC)cc2[N+](=O)[O-])cc1	5	x	x	x	3.3	-1	3	-30	-0.3	-1
CNC(=S)N/N=C/c1ccc2c(c1)OCCO2	-4	2	4	-0.2	-1.8	8	3	-23	0.6	36
Cc1ccc(N=C2NC(=O)/C(=C/c3cn(C)c4ccccc34)S2)cc1C	-1	46	8	27	-12	-11	-84	x	0.8	x
COc1ccccc1N(CC(=O)Nc1c(C)cccc1C)S(C)(=O)=O	-3	x	x	x	-3.5	2	-2	-14	0.0	3
CCOC(=O)C1(Cc2ccccc2)CCN(Cc2cccn2-c2nccs2)CC1	0	1	3	-1.4	14*	-5	12	7	0.3	-4
COc1ccnc(CSC(N)=Nc2ccccc2C(F)(F)F)c1	-5	-9	-5	-2.5	-2.0	-3	4	-10	-0.4	-10

Later entries
SMILES	Beta cell apopt	rRNA inh HTS	rRNA inh HTS OD600	rRNA inh HTS RFP	LANA-H2A inh	ALR H2O2 inh	B2AR ag	T cruzi inh	Bfl-1 A1 inh	Calb FLC
CCOc1ccc(C(=O)OCC(=O)NCCNC(=O)COC(=O)c2ccc(OCC)cc2)cc1	-8	3	9	1.1	2.1	4	-6	-7	-0.4	3
CCOC(=O)c1cc2c(=O)n3ccccc3nc2n(CC(C)C)c1=NC(=O)c1ccco1	-1	x	x	x	4.0	4	-18	16	-0.8	62
O=C(Nc1ccc2c(c1)OCO2)c1cc(-c2cccnc2)nc2ccccc12	3	-4	-8	-2.2	-0.5	-59	9	19	-0.4	-9
CC(C)C1Oc2ccccc2N(CC(=O)NCCCN2C(C)CCCC2C)C1=O (centres undefined)	1	11	3	-8.3	-4.2	-10	0	-16	0.1	0
COc1ccc(N2CCN(C(=O)Nc3ccccc3C)CC2)cc1	8	2	8	-2.4	1.7	54	5	4	-1.0	-8
CC(C)(C)c1ccc(CN2C3=NCCCN3c3ccccc32)cc1	41	x	x	x	4.9	-21	1	69*	-0.6	-2
COC(=O)C1=C(C(=O)OC)N2C=CC=CC2(C)C(C(=O)OC)=C1C(=O)OC (centres undefined)	-2	-3	2	-6.3	-2.3	-3	2	0	1.2	1
CCCC(=O)Nc1nc2ccc(OC)cc2s1	-3	-11	-14	-5.3	3.5	-15	-20	5	-2.6	-1
Cc1ccc(C(=O)OCN2C(=O)c3ccccc3C2=O)o1	x	10	12	-0.3	-2.1	-3	5	-4	-0.3	-1
CCCCNS(=O)(=O)c1ccc(NC(=O)C2CCCO2)cc1 (centres undefined)	0	x	x	x	-2.9	x	-1	-39	-1.7	-27
Cc1ccc(NC(=O)CN(C)C(=O)c2ccc(S(=O)(=O)N(C)c3ccccc3)cc2)cc1	-9	-15	-26	2.2	-2.1	-4	-10	-8	-0.8	-16
O=C(CCSc1ccccc1)NCCSCc1ccccc1	-11	x	x	x	0.9	x	-2	-14	-0.4	-3
Cc1cccc(Nc2nnc(SCC(=O)c3ccc(O)cc3O)s2)c1	-1	-69	-79	-22	3.6	5	3	0	-0.7	2
Cc1ccc(S(=O)(=O)N(C)C)cc1NC(=O)COC(=O)C1CCN(S(=O)(=O)c2cccs2)CC1	-3	0	-8	0.2	0.7	7	-4	-6	-0.7	x
Cc1ccc(C(=O)c2cc([N+](=O)[O-])ccc2N2CC(C)OC(C)C2)cc1 (centres undefined)	24	-3	-8	3.5	-5.3	-8	-1	-22	0.3	0
O=C(Nc1cc(Cl)ccc1O)C1CCCO1 (centres undefined)	-8	x	x	x	2.3	16	-6	-3	-0.1	-12
O=C(Cn1nnc2ccccc21)c1ccc(Cl)cc1	-4	3	12	-1.8	1.0	-3	-10	-3	-0.8	0
Cc1ccc2nc(/C(C#N)=C\c3ccc(Oc4ccc(C(F)(F)F)cc4[N+](=O)[O-])cc3)[nH]c2c1	4	-14	-6	12	4.9	-4	6	50	-0.4	-6
COc1ccc(/C=N/Nc2nonc2N)c(OC)c1	-2	-1	3	0.5	-0.3	-14	-2	-6	0.3	-11
CC(C)NC(=O)c1ccccc1NC(=O)Cc1ccc([N+](=O)[O-])cc1	-1	11	16	-0.6	-0.7	-1	-3	-4	0.2	14
CCC(NC(=O)Cc1c(C)c2c(cc(C)c3c(C)c(C)oc32)oc1=O)C(=O)O (centres undefined)	-6	-7	-31	0.7	3.3	13	5	-5	1.3	4
COc1ccc(NC2CCCN(C(=O)CCN3CCOCC3)C2)cc1 (centres undefined)	3	16	4	1.4	1.6	99*	-1	-16	-1.2	5
COc1ccccc1OCC(=O)NCC1CCCN(Cc2cnn(C(C)C)c2)C1 (centres undefined)	x	-1	2	2.7	0.9	-10	-1	45	-1.2	-13
CC1(C)CC(=O)c2c(nc(SCC(=O)Nc3nsc(-c4ccccc4)n3)c(C#N)c2-c2ccccc2)C1	2	x	x	x	-0.9	-2	-4	36	0.2	0
CCc1cccc(NC(=S)N(CCN(C)C)C(C)c2ccncc2)c1 (centres undefined)	-3	3	0	-7.6	-0.6	0	8	12	0.5	-11

Additional results:
SMILES	Beta cell apopt	rRNA inh HTS	rRNA inh HTS OD600	rRNA inh HTS RFP	LANA-H2A inh	ALR H2O2 inh	B2AR ag	T cruzi inh	Bfl-1 A1 inh	Calb FLC
COc1ccccc1N1CCN(C2CC(=O)N(C)C2=O)CC1 (centres undefined)	4	13	19	2.3	5.9	6	-3	-3	0.1	-11
CC1CCc2cc(F)ccc2N1C(=O)CSc1nnc(-c2cccs2)n1C (centres undefined)	16	x	x	x	2.2	58	-19	10	0.4	28
CC(=O)Nc1ccc(OC(=O)c2cc3ccccc3oc2=O)cc1	4	x	x	x	1.1	2	-4	-4	0.2	1
C/C(=N\N=C(/N)SC1CC(=O)N(c2cccc(Cl)c2)C1=O)c1cccs1 (centres undefined)	-2	-56	-76	-26	-0.5	6	1	25	0.2	39
Clc1cccc(OCCn2ccnc2)c1	1	0	5	3.7	5.2	0	-4	-7	-0.6	2
CCc1nc(N2CCCC2C(=O)O)c2oc3ccccc3c2n1 (centres undefined)	2	x	x	x	1.4	-1	5	-6	-0.1	4
CCN(CC(=O)NCc1cccs1)C(=O)/C=C/c1ccc(OC)c(OC)c1	0	0	2	-2.0	3.0	-18	8	-6	-0.9	4
COc1cccc(-c2[nH]nc3c2C(c2ccc(C)o2)C(C#N)=C(N)O3)c1 (centres undefined)	-6	x	x	x	1.9	19	x	2	-0.8	22
CCN(CC(O)CON=C1c2ccccc2-c2ccccc21)S(=O)(=O)c1ccc(C)cc1 (centres undefined)	5	x	x	x	-0.3	0	-2	62*	0.4	-6
O=C(Nc1cc(C(F)(F)F)ccc1-n1cnc2ccccc21)c1ccccc1	1	x	x	x	0.9	0	-2	-3	0.4	u
CC(C)CC1NC(=O)c2ccccc2-n2c1nc1ccc(Cl)cc1c2=O (centres undefined)	-2	-2	-2	8.8	-2.6	-7	x	x	-0.4	x
Cc1cc(S(=O)(=O)N2CCOCC2)ccc1OCC(=O)N1CCC(C)CC1	-8	1	-3	-1.9	1.4	3	-1	6	0.3	3
CCCc1cc(=O)[nH]c(SCC(=O)Nc2nonc2C)n1	-1	1	3	1.2	-3.3	1	5	-5	-0.4	12
CCn1ncc(Br)c1C(=O)Nc1ccc2c(c1)OCCO2	8	-21*	-13*	-0.4*	-1.0	-1	3	-5	-0.4	-8
O=C(CSc1nnc(-c2cccnc2)n1Cc1ccco1)NCc1ccc2c(c1)OCO2	5	x	x	x	1.2	x	-2	8	0.1	-8
O=C(O)c1cc(N/N=C2/CC(c3ccccc3)Oc3ccccc32)ccc1Cl (centres undefined)	-9	x	x	x	1.0	98*	12	3	0.2	22
CCN1CCN(C(=O)c2oc(=O)c3ccccc3c2-c2ccc(C)cc2)CC1	5	-5	3	-0.6	-4.1	-6	0	7	0.7	9
COc1ccc([N+](=O)[O-])cc1NC(=O)CCc1ccccc1	2	x	x	x	-2.5	-21	-4	5	-0.2	-11

Some entries already given, reduced to Beta cell apopt.
Structure,Beta cell apopt
CCn1ncc(Br)c1C(=O)Nc1ccc2c(c1)OCCO2,8
C/C(=N\N=C(/N)SC1CC(=O)N(c2cccc(Cl)c2)C1=O)c1cccs1 (centres undefined),-2
